miR-21 FLuc = miR-21 reporter, rising signal; HeLa miR-21 FLuc reporter, luciferase, 48 h; Potency, µM (highest dose often 38.3 µM), inactives show at the top dose reporter change, positive = more light; 340,000 tested, under 10 active; active = well fitted rising curve with a large enough effect; inconclusive = small, poorly fitted or top-dose-only effect; inactive = no such curve, though single readings can be large or run the other way;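 note: % of control where 0% means no effect; miR-21 action dims this reporter so a rising signal means less miR-21 action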
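Using DMEM plus 10% FBS, HeLa miR-21-FLuc cells are incubated with test compounds (final up to about 40uM) for 48 hours; firefly luciferase signal is then imaged following reagent-mediated lysis.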
Rango-impB inh = Rango-importin beta binding inhibition; Rango CFP/YFP FRET sensor + importin beta, 45 min; 0.031% of 340,000 active; AID 540263; Potency, µM (top dose mostly 92.2 µM), without a hit: top-dose inhibition of complex formation; Q14974; active = rising FRET ratio curve, often small or poorly fitted; inconclusive = mostly compound fluorescence or quenching in the first reads; inactive = flat curves in all reads;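 note: potency is the fitted concentration of half-maximal effect; 0% = DMSO wells and 100% = buffer wells lacking importin beta; nearly all actives have a fitted effect of over 15% in size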
Target sequence (Q14974 whole entry, looked up): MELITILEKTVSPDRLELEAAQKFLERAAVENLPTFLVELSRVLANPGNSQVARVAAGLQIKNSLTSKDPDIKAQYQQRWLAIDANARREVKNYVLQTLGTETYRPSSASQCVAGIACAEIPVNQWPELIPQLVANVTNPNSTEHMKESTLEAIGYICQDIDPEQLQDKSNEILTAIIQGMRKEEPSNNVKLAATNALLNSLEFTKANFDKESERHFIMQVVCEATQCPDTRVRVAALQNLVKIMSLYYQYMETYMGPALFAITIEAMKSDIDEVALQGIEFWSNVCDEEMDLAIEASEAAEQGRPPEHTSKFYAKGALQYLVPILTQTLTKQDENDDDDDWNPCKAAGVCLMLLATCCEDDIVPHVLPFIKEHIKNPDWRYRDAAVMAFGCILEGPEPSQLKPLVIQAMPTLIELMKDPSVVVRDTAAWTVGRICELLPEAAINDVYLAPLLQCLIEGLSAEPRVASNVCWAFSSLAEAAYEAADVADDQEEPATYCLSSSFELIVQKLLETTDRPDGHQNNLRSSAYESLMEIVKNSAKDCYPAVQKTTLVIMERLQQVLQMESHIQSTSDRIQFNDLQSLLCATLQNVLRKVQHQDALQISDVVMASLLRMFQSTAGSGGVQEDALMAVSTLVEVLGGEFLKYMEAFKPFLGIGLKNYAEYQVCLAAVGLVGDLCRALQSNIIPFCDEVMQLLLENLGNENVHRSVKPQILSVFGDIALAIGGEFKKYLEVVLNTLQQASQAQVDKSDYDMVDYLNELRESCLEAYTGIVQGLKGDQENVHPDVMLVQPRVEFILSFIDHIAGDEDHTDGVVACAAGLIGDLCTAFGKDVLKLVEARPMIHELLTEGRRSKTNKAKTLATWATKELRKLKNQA
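FRET biosensor Rango (snurportin 1 IBB between N-terminal EYFP and C-terminal Cerulean), 50 nM in PBS/1 mM DTT/0.02% Tween-20/0.1% BSA, preincubated 5 min RT with compound; 0.125 microM importin beta added, 45 min RT, CFP/YFP FRET ratio read.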
Rango dissoc inh = inhibitors of RanGTP-induced Rango-importin beta complex dissociation; O95149+P62826; Biochemical FRET Rango-importin beta, RanGTP-induced dissociation; Potency, µM (doses to about 46.1 µM), without a hit: at the highest dose activity change, negative = inhibition; 0.071% of 340,000 active; AID 540253; active means falling FRET ratio curve, often poorly fitted, with flat reads before Ran was added; inconclusive means other falling curves, or compound fluorescence or quenching; inactive means flat or rising ratio curve;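 note: potency is the fitted concentration of half-maximal effect; % of control where 0% means no effect; nearly all actives have a fitted effect of over 45% in size; -100% = wells without RanGTP and RCC1; the record marks most hits as doubtful in a second field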
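Quantitative HTS using a FRET biosensor: 0.1 uM Rango, 0.25 uM importin beta, 0.6 uM Ran, 2 mM GTP, 0.2 uM RCC1 final, PBS with DTT, Tween-20 and BSA. Post-read taken 45 min after Ran addition.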
GLA inh pH 4.5 = inhibitors of human alpha-galactosidase A at pH 4.5 | P06280 | purified enzyme, 4-MU-alpha-Gal fluorescence, pH 4.5 | activity change, negative = inhibition, % at 105 µM | 230,000 tested, under 10 active | AID 1467; inconclusive = small, poorly fitted or top-dose-only inhibition, or a rising curve; inactive = flat fitted curve, though single readings scatter; no compound was filed as active;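 note: 0% = full activity with enzyme and -100% = basal without enzyme; dose as in the result columns while the protocol names 77 µM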
* = called active by the depositor. Not all compounds are listed; count on the stated rates, not on these rows.

For O=C(Cc1ccccc1)N1CCN(c2ccc([N+](=O)[O-])cc2)CC1 the results were miR-21 FLuc 11%, Rango-impB inh 5.2% and Rango dissoc inh -13%.
`Cc1ccc(SCc2nc3ccccc3n2CC(=O)Nc2ccc(Cl)cc2)cc1` gave miR-21 FLuc -11%, Rango-impB inh inconclusive, Rango dissoc inh -3% and GLA inh pH 4.5 0.
`Cc1cc(Cn2nc(-c3ccccc3)cc2C(=O)NCC2CC2)on1` gave Rango-impB inh -0.6% and Rango dissoc inh 4%.
Screening COc1ccc(C(=O)Nc2ccc(Nc3ccccc3)cc2)cc1Br returned Rango-impB inh -0.9% and Rango dissoc inh 2%.
CCOc1ncccc1C(=O)OCc1nnc(-c2ccccc2)o1 was read as miR-21 FLuc -8%, Rango-impB inh 0.2%, Rango dissoc inh 1% and GLA inh pH 4.5 11.
For CCn1c(C)nc2cc(C(=O)NNS(=O)(=O)c3cc(Br)ccc3Br)ccc21 the results were miR-21 FLuc -15%, Rango-impB inh 0.5%, Rango dissoc inh 5% and GLA inh pH 4.5 5.
`NC(=S)Cc1nc(-c2ccccc2)cs1` gave miR-21 FLuc -10%, Rango-impB inh inconclusive, Rango dissoc inh inconclusive and GLA inh pH 4.5 4.
COCCNc1c([N+](=O)[O-])c(=O)n(-c2ccccc2)c2ccccc12 was read as miR-21 FLuc -7%, Rango-impB inh -0.9%, Rango dissoc inh 9% and GLA inh pH 4.5 -4.
`Cc1ccc(NC(=O)COC(=O)C2=NN(c3ccccc3)C(=O)CC2)c(Br)c1` gave Rango-impB inh 2.5% and Rango dissoc inh 12%.
For Cc1cccc(OCC(=O)N/N=C/c2ccccc2C(=O)O)c1 the results were miR-21 FLuc 4%, Rango-impB inh -0.1%, Rango dissoc inh -1% and GLA inh pH 4.5 -1.
CC(=O)Nc1ccc(C2=NN(c3ccccc3)C(c3ccccc3)C2)cc1 (stereo not given) was read as miR-21 FLuc -15%, Rango-impB inh inconclusive and Rango dissoc inh inconclusive.
For CCOC(=O)N1CCN(CCC(=O)Nc2cc([N+](=O)[O-])ccc2OC)CC1 the results were miR-21 FLuc -9%, Rango-impB inh -3.6%, Rango dissoc inh -5% and GLA inh pH 4.5 -2.
CCCCC(=O)NC(c1ccc(Cl)cc1)c1ccc2cccnc2c1O (stereo not given) was read as Rango-impB inh 1.1% and Rango dissoc inh 3%.
CSC1=C(C#N)C(=O)NC(c2ccc(Cl)cc2)S1 (stereo not given) was read as miR-21 FLuc -3%, Rango-impB inh 1.8%, Rango dissoc inh 4% and GLA inh pH 4.5 -1.
Screening CCOc1ccc([N+](=O)[O-])c(N)c1 returned miR-21 FLuc -13%, Rango-impB inh -1.5%, Rango dissoc inh -5% and GLA inh pH 4.5 -11.
Screening Cc1cc2cc(CNS(=O)(=O)c3ccc4ccccc4c3)ccc2n1C returned miR-21 FLuc 4%, Rango-impB inh -3.5%, Rango dissoc inh -16% and GLA inh pH 4.5 10.
For O=C(CCS(=O)(=O)c1ccccc1)NCc1ccccc1 the results were miR-21 FLuc 0%, Rango-impB inh -0.3% and Rango dissoc inh -8%.
Screening CSc1nnc(-c2cc3ccccc3cc2O)n1C returned miR-21 FLuc -45%, Rango-impB inh 1.0%, Rango dissoc inh -19% and GLA inh pH 4.5 11.
Screening O=C(Nc1ccnn1C1CCN(Cc2c[nH]c3ccccc23)CC1)c1ccccc1 returned miR-21 FLuc 1%, Rango-impB inh 0.0% and Rango dissoc inh -6%.
For CCn1c(SCC(=O)OC(C)C)nnc1-c1ccccc1OC the results were miR-21 FLuc -1%, Rango-impB inh 0.8%, Rango dissoc inh 7% and GLA inh pH 4.5 -11.
For O=S(=O)(c1cccc(-c2nnc(SCc3ccc(Cl)cc3)o2)c1)N1CCCCC1 the results were miR-21 FLuc -4%, Rango-impB inh -0.6%, Rango dissoc inh 0% and GLA inh pH 4.5 -4.
Screening CC(C)Oc1ccc(C(=O)NCC(=O)Nc2ccc3c(c2)CCC3)cc1 returned Rango-impB inh -3.2% and Rango dissoc inh -8%.
Screening CCS(=O)(=O)N1CCN(C(=O)c2cccs2)CC1 returned miR-21 FLuc 1%, Rango-impB inh 5.2%, Rango dissoc inh -1% and GLA inh pH 4.5 5.
For Nc1c(C(=O)c2ccc(Cl)cc2)oc2ccccc12 the results were miR-21 FLuc -48%, Rango-impB inh inconclusive, Rango dissoc inh -9% and GLA inh pH 4.5 -8.
`CCOc1ccccc1NC(=S)N(Cc1cc2ccc(C)cc2[nH]c1=O)CC1CCCN1CC` (stereo not given) gave miR-21 FLuc 7%, Rango-impB inh -1.2%, Rango dissoc inh 6% and GLA inh pH 4.5 -11.
`CC1CCCN(C(=O)c2cccc(S(=O)(=O)Nc3cc(C(F)(F)F)ccc3Cl)c2)C1` (stereo not given) gave miR-21 FLuc 1%, Rango-impB inh -3.1%, Rango dissoc inh 10% and GLA inh pH 4.5 -6.
`CN(CC(=O)Nc1cccc(S(=O)(=O)N2CCCCC2)c1)Cc1ccc(F)cc1` gave Rango-impB inh -1.2% and Rango dissoc inh -2%.
COc1cccc(-c2csc(NC(C)=O)n2)c1 was read as miR-21 FLuc -53%, Rango-impB inh 0.2%, Rango dissoc inh -3% and GLA inh pH 4.5 -16.
`CCC(C)[C@H](NC(=O)C1CC(=O)N(c2ccc(OC)cc2)C1)C(=O)NC1CCCC1` (stereo not given in full) gave miR-21 FLuc 1%, Rango-impB inh 2.0% and Rango dissoc inh -14%.
Screening COC(=O)N1C(=O)[C@@](c2ccccc2)(C2CCCC2)N1C(=O)OC returned miR-21 FLuc 7%, Rango-impB inh 6.5% and Rango dissoc inh inconclusive.

Pulled by structure from above, three records:
Screening CC(C)Oc1ccc(C(=O)NCC(=O)Nc2ccc3c(c2)CCC3)cc1 returned Rango-impB inh -3.2% and Rango dissoc inh -8%.
Screening O=C(Nc1ccnn1C1CCN(Cc2c[nH]c3ccccc23)CC1)c1ccccc1 returned miR-21 FLuc 1%, Rango-impB inh 0.0% and Rango dissoc inh -6%.
`CN(CC(=O)Nc1cccc(S(=O)(=O)N2CCCCC2)c1)Cc1ccc(F)cc1` gave Rango-impB inh -1.2% and Rango dissoc inh -2%.

(next part)
Cc1cnc(NC(=O)c2ccc(F)c(S(=O)(=O)N3CCOCC3)c2)s1 was read as Rango-impB inh 0.4% and Rango dissoc inh inconclusive.
COc1ccccc1/C=C/CN1CCC(Oc2ccc(C(=O)N3CCCC3)cc2)CC1 was read as miR-21 FLuc 5%, Rango-impB inh 0.0% and Rango dissoc inh -10%.
For COc1ccc2nc(NC(=O)C(NS(=O)(=O)c3cccs3)C(C)C)sc2c1 (stereo not given) the results were miR-21 FLuc 16%, Rango-impB inh inconclusive, Rango dissoc inh 10% and GLA inh pH 4.5 -1.
Screening CN(C)S(=O)(=O)N1CCC(C(=O)O)(c2ccccc2)CC1 returned miR-21 FLuc -1%, Rango-impB inh 6.4%, Rango dissoc inh -2% and GLA inh pH 4.5 -1.
Screening CCOc1ccc(C(=O)C(C)OC(=O)CN2C(=O)NC(C)(C)C2=O)cc1 (stereo not given) returned Rango-impB inh -1.3% and Rango dissoc inh -8%.
Screening CCc1ccc(N(C(=O)c2csnn2)C(C(=O)NC(C)(C)C)c2cccnc2)cc1 (stereo not given) returned miR-21 FLuc -4%, Rango-impB inh 0.2%, Rango dissoc inh -1% and GLA inh pH 4.5 -1.
CCCCC1CCC(c2nc(-c3ccccn3)no2)CC1 (stereo not given) was read as miR-21 FLuc -42%, Rango-impB inh -1.0%, Rango dissoc inh -7% and GLA inh pH 4.5 -15.
`O=C(NNC(=O)c1ccccc1C(F)(F)F)c1csc(N2CCOCC2)n1` gave miR-21 FLuc -4%, Rango-impB inh -3.7% and Rango dissoc inh -12%.
For CC1(C)CC(=O)CC2(C1)NCC(c1ccccc1Cl)c1c2[nH]c2ccccc12 (stereo not given) the results were miR-21 FLuc 13%, Rango-impB inh -2.8%, Rango dissoc inh -2% and GLA inh pH 4.5 -29.
COC(=O)C1=C(C)N(CCc2ccccc2)C(=O)/C1=C\c1ccco1 was read as miR-21 FLuc 0%, Rango-impB inh -0.5%, Rango dissoc inh 2% and GLA inh pH 4.5 -7.
Screening O=C(CCc1ccccc1)N1CCN(S(=O)(=O)c2cccs2)CC1 returned miR-21 FLuc -6%, Rango-impB inh -1.8% and Rango dissoc inh -21%.
Screening O=C(NCCCN1CCN(C2CCCCC2)CC1)Nc1ccccc1C(F)(F)F returned miR-21 FLuc -4%, Rango-impB inh -0.3%, Rango dissoc inh 2% and GLA inh pH 4.5 5.
For COc1ccccc1CNC(=O)c1cc(-c2ccccc2)nn1Cc1cc(C)no1 the results were Rango-impB inh 4.3% and Rango dissoc inh -1%.
For CC(C)N(C(=O)[C@H]1C[C@H](CC(=O)NC(C)(C)C)C(=O)N2CCc3c([nH]c4ccc(Cl)cc34)[C@]12C)C(C)C the results were Rango-impB inh -0.5% and Rango dissoc inh -1%.
For N#CC1=C(N)Oc2n[nH]c(-c3ccc(F)cc3)c2C1c1cccnc1 (stereo not given) the results were miR-21 FLuc -2%, Rango-impB inh -3.7%, Rango dissoc inh -7% and GLA inh pH 4.5 6.
Cc1ccc(OCC(=O)NCCc2nc3ccccc3[nH]2)c(C)c1 was read as miR-21 FLuc 6%, Rango-impB inh 4.1%, Rango dissoc inh 1% and GLA inh pH 4.5 -9.
Screening COc1cccc(NC(=O)c2ccc3c(SCC(=O)O)c4c(nc3c2)CCCC4)c1 returned miR-21 FLuc -6%, Rango-impB inh 0.0%, Rango dissoc inh 0% and GLA inh pH 4.5 -5.
CCN(CC)CCNC(=O)c1c(O)c2c([nH]c1=O)CCCC2 was read as miR-21 FLuc -10%, Rango-impB inh -2.9%, Rango dissoc inh -2% and GLA inh pH 4.5 3.
`C=CCN(C(=O)Nc1ccc(OC)cc1)c1nnc(-c2ccncc2)s1` gave miR-21 FLuc -4%, Rango-impB inh 3.6% and Rango dissoc inh -7%.
For COc1ccc(CN2CC(C(=O)NCCCN3CCCCC3)CC2=O)cc1 (stereo not given) the results were miR-21 FLuc -3%, Rango-impB inh -2.7% and Rango dissoc inh 5%.
`CCO[C@@H]1OC(C(=O)N2CCN(C)CC2)=C[C@H](C2CCCCC2)[C@H]1CCCO` gave miR-21 FLuc -1%, Rango-impB inh 0.3%, Rango dissoc inh -2% and GLA inh pH 4.5 4.
For O=C(c1cccc(Cl)c1)N1CCCC(C(=O)N2CCN(c3ccccc3)CC2)C1 (stereo not given) the results were miR-21 FLuc 0%, Rango-impB inh 0.2% and Rango dissoc inh 0%.
`CCC1(C(=O)OC)NC(c2ccco2)C2C(=O)N(c3ccc(C)cc3)C(=O)C21` (stereo not given) gave miR-21 FLuc -7%, Rango-impB inh -1.0%, Rango dissoc inh -6% and GLA inh pH 4.5 -5.
For Cc1cccc(NC(=O)CNC(=O)Cn2cc(C(F)(F)F)cc(Cl)c2=O)c1C the results were Rango-impB inh 2.8% and Rango dissoc inh 0%.
CC(C)CNC(=O)CSc1nc2scc(-c3ccccc3)c2c(=O)[nH]1 was read as miR-21 FLuc -1%, Rango-impB inh inconclusive, Rango dissoc inh -26% and GLA inh pH 4.5 2.
For Cc1csc(C(=O)O)c1NC(=O)c1cccc([N+](=O)[O-])c1 the results were miR-21 FLuc 0%, Rango-impB inh 1.0%, Rango dissoc inh -5% and GLA inh pH 4.5 0.
CC(=O)c1cnc(Nc2ccc(C)cc2)s1 was read as miR-21 FLuc -54%, Rango-impB inh 1.4%, Rango dissoc inh 6% and GLA inh pH 4.5 2.
Screening C=CCSC1=N/C(=C\c2ccsc2)C(=O)S1 returned miR-21 FLuc -3%, Rango-impB inh -2.1%, Rango dissoc inh -2% and GLA inh pH 4.5 0.
Fc1cccc(NC(=S)Nc2cccnc2)c1 was read as miR-21 FLuc -6%, Rango-impB inh inconclusive, Rango dissoc inh -6% and GLA inh pH 4.5 7.
For O=C(CSc1nnc(COc2ccc(Cl)cc2)o1)N1c2ccccc2CCc2ccccc21 the results were miR-21 FLuc 21%, Rango-impB inh -5.6%, Rango dissoc inh -6% and GLA inh pH 4.5 -11.
Screening Cc1[nH]c2ccccc2c1C(=O)C(=O)N1CCN(C(=O)c2ccco2)CC1 returned miR-21 FLuc -4%, Rango-impB inh 0.3%, Rango dissoc inh -11% and GLA inh pH 4.5 -8.
